Source: PubChem BioAssay
TAR Tat displ: HIV-1 TAR-Tat binding disruption. AID 1259389. HIV-1 TAR RNA, Tat peptide displacement FRET; stronger effect = higher value. z-score (test concentration not listed). hit rate 0.6% among 100,000;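 note: score is relative to mean and SD of negative controls; some compounds called inactive have numbers as strong as hits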
CDC25B-CDK2 inh: human CDC25B-CDK2/CyclinA binding inhibition; z-score (test concentration not listed); HTRF CDC25B-CDK2/CyclinA binding, anti-His/anti-Flag; stronger effect = higher value; P30305+P24941; hit rate 0.72% among 94,000; AID 1259370;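 note: score is relative to mean and SD of negative controls; strong numbers were not always called active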
Numbers without * were called inactive; x = not tested or not shown.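 Rule for the calls: active = z-score from 3 up in half or more of its runs; inactive = the rest.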 Not a hit list; any-hit rate near 0.9%.

SMILES	TAR Tat displ	CDC25B-CDK2 inh
Cc1ccccc1CN1C(=O)C(O)(CC(=O)c2cccnc2)c2cc(Cl)ccc21 (configuration not stated)	1.6	-0.12
CCOC(=O)c1nc(Nc2cccc(C)n2)c2c(C)noc2n1	0.92	x
O=C(CSc1nnc(SCC(=O)NCC(=O)c2ccccc2)s1)NCC(=O)c1ccccc1	x	-9.6
CN1c2ccccc2-c2nc(SCC(=O)c3ccc4c(c3)OCO4)ncc2S1(=O)=O	-0.9	x
CCCCNc1nc(N2CCN(C)CC2)c2cnn(C)c2n1	1.3	x
Cc1ccc(C2=NN(C(=O)CCCC(=O)O)C(c3ccc(Br)cc3)C2)cc1 (configuration not stated)	0.26	0.43
CCOC(=O)c1c(NC(=O)C2COc3ccccc3C2)sc2c1CCCC2 (configuration not stated)	-0.71	-1.1
COC(=O)CSc1nnc(CN)o1	1.6	-1.3
CCNc1nc(NCc2cccc(C)c2)c2cnn(C)c2n1	0.32	x
CCOc1ccc(-c2nc3sc4cc(Cl)ccc4n3c2NCCOC)cc1	2	x
Cc1ccc2occ(C3Nc4ccccc4NC4=C3C(=O)CC(c3ccccc3)C4)c(=O)c2c1 (configuration not stated)	0.53	1.4
CCCc1c(SC(=O)N(C)C)ccc2c(C)cc(=O)oc12	x	-1.1
COc1ccc(OC(C)C(=O)Nc2ncn[nH]2)cc1 (configuration not stated)	0.43	-0.77
CCCSc1ncc(Cl)c(C(=O)Nc2sc3c(c2C(=O)NCc2ccco2)CCCC3)n1	1.9	-1.4
O=C(c1ccc2cccc(O)c2n1)N1CCN(c2ccccc2F)CC1	0.96	x
O=C(Cn1c(=O)oc2cc(S(=O)(=O)N3CCc4ccccc43)ccc21)NCc1ccco1	-0.52	-1.7
CCN(CC)CCNC(=O)C(=O)Nc1c2c(nn1-c1ccccc1)CSC2	2.4	x
NS(=O)(=O)c1ccc(CCNc2nc3c(-c4cccc(Cl)c4)nnn3c3ccccc23)cc1	0.83	1.8
O=C1C=CC2=C3c4cc(O)c(O)cc4C[C@@]3(O)COC2=C1	1.7	x
CCOC(=O)c1c(C)n(C)c2c1cc(OC)c1ccccc12	x	0.17
COc1cccc2c1ncc1c(C)nn(-c3ccc(F)cc3)c12	x	-1.1
Cc1noc2ncnc(N3CCC(C(=O)Nc4nccs4)CC3)c12	-0.23	x
CN(C)S(=O)(=O)c1ccc2c(c1)c(C(N)=O)cn2C	2.3	-0.8
COc1ccc2c(c1)sc1nc(-c3cc4ccccc4oc3=O)cn12	x	-2.3
O=C(O)c1cn(-c2ccc(F)cc2)c2cc(N3CCNCC3)c(F)cc2c1=O	1.6	x
C=CCN(Cc1nc(-c2ccc(OC)c(OC)c2)no1)S(=O)(=O)c1ccc(Cl)cc1	2.4	-2.6
CCN1CCN(C(=O)C2CCN(C(=O)c3cc4sccc4n3CC)CC2)CC1	x	-1.5
CSc1ccc(C2c3c(oc4cc(C)cc(C)c4c3=O)C(=O)N2CCCOC(C)C)cc1 (configuration not stated)	0.12	-1.8
CCc1nn(CCCC(=O)NCCCN2C(C)CCCC2C)c(=O)c2cc3occc3n12 (configuration not stated)	2	-0.09
Cc1ccc2onc(CNC(=O)N(C(C)C)C3CCCCC3)c2c1	0.84	x
CCOC(=O)c1c(NC(=O)CN2CCOCC2)sc2c1CCCC2=O	x	0.73
CCc1nn2c(=O)c(S(=O)(=O)NCCc3ccc(C)cc3)c(C)nc2s1	-0.5	-1.7
CCCCn1c(COc2ccc(OC)cc2)nc2ccccc21	1.4	-1
CCCCC(=O)Nc1nnc(S(=O)(=O)N2CCC(C)CC2)s1	2	-1.5
Nc1ncc(Br)cc1[N+](=O)[O-]	x	1.1
CCOC(=O)C(C)Sc1nnc2cc(C)c3ccccc3n12 (configuration not stated)	1.1	-0.59
CCOC(=O)C1=C(N)OC2=C(C(=O)CC(C)(C)C2)C1c1ccc(C)cc1C (configuration not stated)	x	-0.49
CCOc1ccc(-c2nc3c(c(=O)[nH]2)Cc2cc(Cl)ccc2O3)cc1	2.3	0.98
O=C(NCc1ccc2c(c1)OCO2)c1ccc(Cl)c(NC2=NC3CS(=O)(=O)CC3S2)c1 (configuration not stated)	x	-0.3
O=C(O)c1cccc(NC2(c3ccccc3)C(=O)c3ccccc3C2=O)c1	-1.8	x
Cc1ccc(Nc2ncnc3onc(-c4ccc(Cl)cc4)c23)cc1	0.39	x
O=C(NC1CCCC1)C1CCN(c2cnccn2)CC1	0.3	-1.2
COc1cc(C2SC(NC(C)=O)=NN2C(C)=O)cc(Br)c1OC(=O)c1ccco1 (configuration not stated)	-0.5	-1.1
CCOC(=O)c1cn[nH]c1S(=O)(=O)Nc1cc(OC)cc(OC)c1	1.4	x
Cn1c(=O)sc2cc(S(=O)(=O)N3CCn4c3nc3ccccc34)ccc21	0.51	x
Cc1cc(N=Nc2ccc(Cl)cc2)cc(CN2CCOCC2)c1O	x	-1.9
Cc1ccc(-n2[nH]c(C)cc2=O)cc1	x	-1.4
CCOC(=O)CNC(=O)CSc1nc2ccccc2c(=O)[nH]1	x	-0.52
COC(=O)c1sc(N2C(=O)c3oc4ccc(C)cc4c(=O)c3C2c2ccc(O)cc2)nc1C (configuration not stated)	2.2	-0.12
CN(C)CCN(Cc1ccco1)C(=O)c1c2c(nc3ccccc13)C(=O)N(C1CCCCC1)C2	0.71	x

Additional entries:
SMILES	TAR Tat displ	CDC25B-CDK2 inh
Cc1nnc(NC(=O)CCC(=O)O)s1	0.14	-0.34
CCOC(=O)c1noc2nc(C)nc(N3CCN(c4ccc(OC)cc4)CC3)c12	0.28	x
CC(C)(C)NC(=O)Nc1ccccc1SCCC#N	x	-3.6
CCOC(=O)CSc1nc2c(sc(=S)n2-c2cc(Cl)ccc2OC)c(=O)[nH]1	1.6	x
N#Cc1ccc(N2CCS(=NC(=O)Nc3ccc(Cl)cc3)CC2)c([N+](=O)[O-])c1	x	-0.55
O=C(Nc1ccc(Cl)cc1)Nc1nnc(-c2ccccc2Br)s1	0.81	-0.44
Cc1[nH]oc(=O)c1C=Nc1ccccc1	x	-2.7
O=C(O)C1Sc2[nH]c(=O)sc2C2c3ccc(O)cc3OC(=O)C12 (configuration not stated)	x	-2.5
O=C1SC(Nc2ccccc2F)C(=O)N1c1ccccc1 (configuration not stated)	1.6	-0.03
COc1ccc(-c2nc(-c3cc4cc(C)ccc4[nH]c3=O)no2)cc1OC	2.1	1.7
CCN1C(=O)Cc2cc(NC(=O)C(C)(C)C)ccc21	2.5	x
O=C1Nc2ccccc2S(=O)(=O)N1c1ccc(Br)cc1	x	-0.56
O=C(Cn1ncc2c3ccccc3n(Cc3ccccc3)c2c1=O)NCc1ccccn1	-1	-1.1
Cc1cc([N+](=O)[O-])nn1CCCC(=O)O	0.37	x
Cc1nc2nc(-c3cccnc3)nn2c(C)c1Cl	1.3	-1.3
CCS(=O)(=O)c1nc(S(=O)(=O)c2ccc(C)cc2)c(N2CCCCC2)s1	-1.5	-0.36
CN1C(=O)c2cc(C(=O)NCc3ccco3)nn2CC1(C)C(=O)NC1CCCCC1 (configuration not stated)	-0.6	x
CCc1nnc(NC(=O)CSCc2cc(=O)n3nc(CC(C)C)sc3n2)s1	0.67	x
CCOC(=O)c1noc2ncnc(N3CCC(C(N)=O)(N4CCCCC4)CC3)c12	1.4	x
CC1CCC(NC(=O)Cn2c3ccccc3c3cn[nH]c(=O)c32)CC1 (configuration not stated)	x	0.38
Cn1c(=O)c2cc(C(=O)NC3CC3)sc2c2ccccc21	0.33	-0.97
Cc1nn(C)c(Cl)c1S(=O)(=O)Nc1ccc(Oc2ccc(F)cc2)cc1	x	11
CCC(=NC1CC(C)(C)NC(C)(C)C1)C1=C(O)CC(C)(C)CC1=O	x	-4.2
CCC(=O)N1c2ccccc2N=C(c2ccccc2)CC1c1ccccc1 (configuration not stated)	x	-1
COc1ccc(Cc2nnc3c4cnn(-c5ccc(C)cc5)c4ncn23)cc1OC	-0.45	-0.29
CCOc1c(Nc2ccc(-c3ccno3)cc2)c(=O)c1=O	-0.02	x
c1cc(CN2CCCCC2)cc(OCCCNc2nc3ccccc3s2)c1	x	-1
COC(=O)c1ccc(CN2CC(=O)N3CSCC3C2=O)cc1 (configuration not stated)	0.18	-0.91
CCOC(=O)C1=C(N)n2c(s/c(=C/c3ccccc3)c2=O)=C(C(=O)OCC)C1c1ccccc1 (configuration not stated)	x	-1.8
O=C1CC(N2CCN(c3ccccc3)CC2)C(=O)N1c1cccc(Cl)c1 (configuration not stated)	0.88	0.28
Cc1ccc(C(=O)N/C(=C/c2ccccc2Cl)C(=O)Nc2ccc(S(=O)(=O)Nc3nccs3)cc2)cc1	x	-1.3
O=C1CC(c2cccc(Br)c2)c2c(n[nH]c2-c2ccccc2)N1 (configuration not stated)	0.45	1
O=C(NC1CCCC1)c1ccc(CS(=O)c2ccc(Cl)cc2)o1 (configuration not stated)	0.43	1.1
O=c1cc(N2CCOCC2)nc2scc(-c3ccc(Cl)cc3)n12	0.63	-1.1
C=CCN1C(=O)C(O)(CC(=O)c2ccccc2)c2cc(Br)ccc21 (configuration not stated)	-1.1	2.1
O=S(=O)(c1ccc(Br)cc1)N1CCCC(c2nc(-c3cccc(Cl)c3)no2)C1 (configuration not stated)	2	x
Cn1nc(C(=O)Nc2ccc(Cl)cc2)c2c1-c1ccsc1CC2	-0.23	x
CCOC(=O)c1cc(S(=O)(=O)N(C)CC(=O)NC2CC2)cn1C	0.54	x
Cc1cc(C)c(NC(=O)CCS(=O)(=O)c2ccc3c(c2)NC(=O)CS3)c(C)c1	-3.2	x
c1ccc(-c2nc3c4ccccc4nc(N4CCN(c5ccccn5)CC4)n3n2)cc1	-1.3	0.76
CCOc1ccccc1NC(=O)C(C)N1c2cccc3cccc(c23)S1(=O)=O (configuration not stated)	-0.69	-0.92
O=C(CSc1nnnn1-c1ccccc1)Nc1ccc2[nH]c(=O)[nH]c2c1	0.04	-1
Cc1nn2c(c1-c1ccccc1)N=C(c1ccco1)CC2c1ccccc1 (configuration not stated)	-3.5	-0.49
CCc1ccccc1NS(=O)(=O)c1ccc(N2CCCCS2(=O)=O)cc1	1.6	x
Cc1ccc(NS(=O)(=O)c2ccc(-c3cc(C(F)(F)F)on3)s2)cc1N(C)C	0.36	x
Cc1ccc(S(=O)(=O)NC(=O)NCCSCc2ccco2)cc1	x	-2.2
Cc1nn2cnnc2c(C)c1CCC(=O)NCCC(C)C	-0.14	x
COC(=O)c1cc(/C=C(\C#N)S(=O)(=O)c2ccccc2)cn1C	x	-0.42
Brc1cccc(-c2nn3c(Cn4nnc5ccccc54)nnc3s2)c1	1.3	-0.56
CCOC(=O)N1CCN(c2c(N3CCN(c4ccccc4)CC3)c(=O)c2=O)CC1	2.4	x

New compounds follow
SMILES	TAR Tat displ	CDC25B-CDK2 inh
CC1CS(=O)(=O)N(c2ccc(C(=O)NC(C)(C)C)cc2)C1=O (configuration not stated)	1.9	-1.3
CC1CCCCN1S(=O)(=O)c1cc2c3c(c1)CC(=O)N3CCC2 (configuration not stated)	1.7	x
CC1=C(c2ccccc2)S(=O)(=O)N=C1N1CCOCC1	0.96	-2.6
Cn1c(NC(=O)c2ccccc2Br)cc(=O)n(C)c1=O	1.4	x
COC(=O)C1=C(C)NC2=C(C(=O)CC(c3ccccc3)C2)C1c1cc2c(cc1Cl)OCO2 (configuration not stated)	1.4	-2
COc1ccc(C2NC(C(=O)O)Cc3c2[nH]c2ccccc32)cc1OC (configuration not stated)	1.6	x
CCc1nnc(SC(CC)C(=O)N2CCOCC2)c2cc3oc(C)cc3n12 (configuration not stated)	-0.35	x
Cc1ccn2c(=O)cc(CSCC(=O)Nc3nnc(C(C)C)s3)nc2c1	0.29	x
COc1cc(OC)c(NC(=O)Nc2nnc(N(C)C3CCCCC3)s2)cc1Cl	2.1	1.2
COc1ccc(-c2ccnc(-c3ccncc3)n2)cc1	x	-1
CCOC(=O)c1csc(-c2ccc(C3SCCS3)cc2)n1	x	-2
Cc1nnc(SCc2cc(=O)n3c4c(sc3n2)CCCC4)s1	1.4	-1.2
Cc1c(Cl)cccc1NC(=O)CCC(=O)NNC(=O)c1ccccc1C(=O)O	x	-0.06
CC(C)Cc1ccc(S(=O)(=O)Nc2ccc3[nH]c(=O)[nH]c3c2)cc1	-0.57	-1.9
FC(F)(F)c1ccc2[nH]c(=S)[nH]c2c1	x	-0.92
Cc1ccc(-c2noc(-c3cccc(Cl)c3)n2)s1	1.7	x
COc1ccc(-n2c(SCC(=O)Nc3nccs3)nc3c(c2=O)SCC3)cc1	-0.96	7.1
Cc1cccc(OCc2nn3c(C(C)(C)C)nnc3s2)c1	1	-0.85
Cc1ccc(S(=O)(=O)c2c(C)cc(C)cc2C)cc1	x	0.02
CCc1c(O)nc(SCCN(CC)CC)n(-c2ccccc2)c1=O	1.6	0.76
